KCNQ2 block – KCNQ2 potassium channel inhibitors, primary screen, cell-based, CHO-K1, FluxOR thallium flux, B-score (AID 2156). B-score at 10 µM. 310,000 compounds, 1.1% hits. Potassium voltage-gated channel subfamily KQT member 2 (Rattus norvegicus), O88943. 20 min; active compounds read low; only compounds with negative scores are shown here; some inactives read as strong as hits;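 active = fluorescence ratio B-score at most minus 3 library SDs, with starting brightness B-score within 2 library SDs, cut at about -5.5 in these data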
Target sequence (O88943 whole entry, looked up): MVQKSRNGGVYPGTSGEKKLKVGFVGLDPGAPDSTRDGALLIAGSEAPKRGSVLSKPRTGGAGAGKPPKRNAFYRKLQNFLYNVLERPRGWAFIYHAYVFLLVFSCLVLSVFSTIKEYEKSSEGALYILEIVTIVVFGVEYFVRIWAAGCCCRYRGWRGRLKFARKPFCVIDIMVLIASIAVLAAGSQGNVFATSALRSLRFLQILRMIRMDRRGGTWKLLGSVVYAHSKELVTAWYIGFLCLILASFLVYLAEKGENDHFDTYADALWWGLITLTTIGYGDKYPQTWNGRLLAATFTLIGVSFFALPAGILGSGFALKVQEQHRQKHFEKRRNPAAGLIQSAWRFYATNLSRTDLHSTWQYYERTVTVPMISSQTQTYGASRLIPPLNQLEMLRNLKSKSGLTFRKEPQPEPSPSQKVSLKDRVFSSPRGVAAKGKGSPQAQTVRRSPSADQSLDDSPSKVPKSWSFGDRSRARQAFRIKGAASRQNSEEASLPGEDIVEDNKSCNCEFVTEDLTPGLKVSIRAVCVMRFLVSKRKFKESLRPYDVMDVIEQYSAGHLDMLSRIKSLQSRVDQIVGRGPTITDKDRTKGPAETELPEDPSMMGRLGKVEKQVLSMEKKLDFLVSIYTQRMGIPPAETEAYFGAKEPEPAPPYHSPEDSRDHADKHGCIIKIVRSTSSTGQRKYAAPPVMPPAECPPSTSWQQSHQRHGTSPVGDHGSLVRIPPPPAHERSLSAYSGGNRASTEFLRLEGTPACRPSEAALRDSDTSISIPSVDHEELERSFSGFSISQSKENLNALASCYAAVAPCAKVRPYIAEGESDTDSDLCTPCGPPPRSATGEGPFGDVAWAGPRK
KCNQ2 block baseline – second read-out of KCNQ2 block, no call of its own (marks repeat the call); B-score; measured here: initial fluorescence intensity artifact check;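 brightness before thallium and not channel activity; 0 = typical well and far values either way flag optical interference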
Active calls of the source: *; i = inactive. The list is partial. The share of hits here may be higher or lower than overall.

Values in the order – KCNQ2 block | KCNQ2 block baseline
> O=C(CSCc1ccccc1Br)Nc1ccccc1
 : i | 0.31
> Cc1csc(SCCn2c(N3CCN(c4ccccc4)CC3)nc3c2c(=O)[nH]c(=O)n3C)n1
 : i | 2.29
> O=C(N/C(=C/c1ccco1)C(=O)N1CCOCC1)c1cccs1
 : i | -0.33
> CCn1c(=O)cc(SCC(=O)NCc2ccc(C)cc2)c2ccccc21
 : i | -0.31
> COc1ccc(/C=c2/sc3n(c2=O)C(c2ccccc2OC)C2=C(N=3)c3ccccc3CC2)cc1O (configuration not stated)
 : i | 0.62
> NC(=O)CCC(=O)N1CCCC(C(=O)c2ccc3c4c(cccc24)CC3)C1 (configuration not stated)
 : i | 1.6
> Oc1c(C(c2ccco2)N2CCC3(CC2)OCCO3)sc2ncnn12 (configuration not stated)
 : i | 0.7
> C/C(=N\NC(=O)c1sccc1C)c1cccnc1
 : i | -0.73
> Cc1ccccc1-n1cc[nH]c1=S
 : i | -0.03
> Cc1ccccc1CC(=O)N1CCCC1
 : i | 1.27
> Cc1ccnc(NC(=O)c2ccc(Cl)c(S(=O)(=O)N3CCCC3)c2)c1
 : i | -1.26
> CCCC(=O)Oc1c(S(=O)(=O)c2ccc(C)cc2)c(C)nn1C(C)(C)C
 : i | -3.89
> O=C(Nc1nc(-c2ccc3ccccc3c2)cs1)C1CCN(S(=O)(=O)c2cccs2)CC1
 : i | 0.03
> O=C(O)c1[nH]c2ccccc2c1C(c1c(F)cccc1Cl)c1c(C(=O)O)[nH]c2ccccc12
 : i | -0.29
> CC(C)(C)NC(=O)COC(=O)c1ccc(O)cc1
 : i | 0.84
> CN1CCN(S(=O)(=O)c2ccc(NC(=S)NC(=O)C3CCCCC3)cc2)CC1
 : i | 0.61
> CCC(=O)N1CCN(c2ccccc2NC(=O)COc2cccc(C)c2)CC1
 : -10.4* | -0.03*
> Clc1ccc(-c2ccc(C=Nc3ccc(N4CCOCC4)cc3)o2)c(Cl)c1
 : i | -0.71
> CCc1cc(C(=O)Nc2cc(S(=O)(=O)N(CC)CC)ccc2N2CCOCC2)sc1C
 : i | 4.53
> Cc1cc(C)c2nc(NC(=O)c3cccc(S(=O)(=O)N4CCc5ccccc54)c3)sc2c1
 : i | -0.92
> Cc1ccc(-n2ncc3c(NNC(=O)c4ccco4)ncnc32)cc1Cl
 : i | 2.04
> COc1ccc(C(CC(=O)N2CCCCC2)c2c(OC)cc(OC)c3c(-c4ccccc4)cc(=O)oc23)cc1 (configuration not stated)
 : i | -0.3
> Cc1ccc(NC(=O)Nc2sc(=S)n(C)c2C)cc1
 : i | 1.19
> CCOc1ccc(CCNC(=O)CCS(=O)(=O)c2ccc(OC)cc2)cc1OCC
 : i | -0.03
> CCOCc1nnc(NC(=O)CCc2ccccc2)s1
 : i | 1.46
> Cc1cc(Cl)ccc1OCCCC(=O)NNC(=O)c1ccccc1O
 : i | -1.46
> COCCNc1nc2nonc2nc1N(C)Cc1ccc(C)cc1
 : i | 0.03
> CCc1nnc(NC(=O)CSc2nc3cc4c(cc3cc2C)OCCO4)s1
 : i | 1.21
> COc1cc2c(cc1OC)C(c1ccccc1Cl)N(C)CC2 (configuration not stated)
 : i | 1.43
> S=C(NCc1ccco1)N1CCN(c2cccc(Cl)c2)CC1
 : i | 0.08

The list continues:
Values in the order – KCNQ2 block | KCNQ2 block baseline
> CC(=O)Nc1ccc(NC(=O)Cn2nc(C(=O)Nc3ccc(C)cc3)ccc2=O)cc1
 : i | 0.63
> CCC(c1nnnn1C(C)(C)C)N1CCN(Cc2ccccc2OC)CC1 (configuration not stated)
 : i | 0.57
> COc1ccc(S(=O)(=O)N2CCOCC2)cc1NC(=O)CN1CCN(C)CC1
 : i | 1.43
> N#CC1=C(N)N(c2ccccc2Sc2ccccc2)C(=O)C1
 : i | 1.08
> COc1ccc(N(CC(=O)N/N=C/c2ccc(OC)cc2OC)S(=O)(=O)c2ccccc2)cc1
 : i | -0.17
> Cc1ccccc1CC1SC(N)=NC1=O (configuration not stated)
 : i | 0.02
> O=C(c1ccc2ccccc2c1)N1CCOCC1
 : i | -1.24
> CCN(CC)S(=O)(=O)c1cc(C(=O)Nc2cc(Cl)ccc2N2CCN(C)CC2)ccc1Cl
 : i | 2.21
> O=Cc1cccc(Oc2ncccn2)c1
 : i | 0.01
> Cc1cc(C)c(OCC(O)CN2CCN(c3ccccn3)CC2)c(C)c1 (configuration not stated)
 : i | 1.61
> O=C(CN(CC1CCCO1)C(=O)CNS(=O)(=O)c1ccc(F)cc1)NC1CCCCC1 (configuration not stated)
 : i | -0.07
> COc1ccc(-n2nc(C(=O)NCC(=O)N3CCN(c4ccccn4)CC3)c3ccccc3c2=O)cc1
 : -8.21* | -0.45*
> COc1ccc(/C=C2\N=C3CCCN3C2=O)cc1
 : i | 0.86
> CCOc1nc(-c2ccc(C)cc2)ccc1-c1noc(-c2cccnc2)n1
 : i | 1.43
> CN1CCN(C(=S)c2cn(CCOc3ccccc3)c3ccccc23)CC1
 : i | 0.61
> COc1ccc(-n2nc(C(=O)NCC(=O)NC3CCCCCC3)c3ccccc3c2=O)c(OC)c1
 : i | -1.54
> Cc1cc(C)c(S(C)(=O)=O)c(NN)n1
 : i | -1.31
> NC(=S)c1c(Cl)cc(C(F)(F)F)cc1Cl
 : i | -1.14
> COc1ccc(N(C)S(=O)(=O)c2cccc(C(=O)OCC(=O)Nc3sc4c(c3C#N)CCCCC4)c2)cc1
 : i | 1.7
> COc1ccc(-c2c3c(nc4sc5c(=O)[nH]c(C)nc5c24)CCC3)cc1
 : i | -0.36
> CC1CCCC(NC(=O)c2cccc(S(=O)(=O)N3CCCCC3)c2)C1C (configuration not stated)
 : i | -0.03
> CCc1ccccc1NC(=O)C1CCN(S(C)(=O)=O)CC1
 : i | 1.17
> Cc1ccc(S(=O)(=O)Cc2cn3cccnc3n2)cc1
 : i | -0.15
> O=C(Nc1ccc2c(c1)OCCO2)C(c1ccc(F)cc1)N1CCCCC1 (configuration not stated)
 : i | 0.09
> O=C(CSCc1ccccc1)N/N=C/c1ccccc1OCc1ccccc1
 : i | -0.23
> Cn1c(=O)c2sccc2n(Cc2ccc(Br)cc2)c1=O
 : i | 0.02
> Cc1cccc(C2(c3cccc(C)c3)CC2C(=O)Nc2ccc([N+](=O)[O-])cc2O)c1 (configuration not stated)
 : i | 0.12
> CC1CCN(CCC(=O)N2CCCc3c2c(=O)oc2ccc(O)cc32)CC1
 : i | -0.08
> Cc1noc(C(=O)Nc2cccnc2)c1Cl
 : i | -0.67
> O=C1NC(c2ccc3c(c2)OCO3)Oc2ccccc21 (configuration not stated)
 : i | 2.43

Another view of some results above.
smiles: O=C(c1ccc2ccccc2c1)N1CCOCC1
- KCNQ2 block: i
- KCNQ2 block baseline: -1.24
smiles: CCN(CC)S(=O)(=O)c1cc(C(=O)Nc2cc(Cl)ccc2N2CCN(C)CC2)ccc1Cl
- KCNQ2 block: i
- KCNQ2 block baseline: 2.21
smiles: O=Cc1cccc(Oc2ncccn2)c1
- KCNQ2 block: i
- KCNQ2 block baseline: 0.01
smiles: Cc1cc(C)c(OCC(O)CN2CCN(c3ccccn3)CC2)c(C)c1 (configuration not stated)
- KCNQ2 block: i
- KCNQ2 block baseline: 1.61

Remaining list, next part:
Values in the order – KCNQ2 block | KCNQ2 block baseline
> CC(C)CNC(=O)c1cc(=O)[nH]c2ccc(S(=O)(=O)Nc3ccc(F)cc3)cc12
 : i | 0.16
> O=C(c1ccncc1)N1CCN(CCc2ccccc2)CC1
 : i | 2.36
> COC(=O)C1=C(C)N(c2cc(Cl)cc(Cl)c2)C(=O)C1
 : i | -1.35
> Cc1c(C(=O)N2CCCCC2)c(S(=O)(=O)N2CCC(C)CC2)c(C)n1C
 : i | -0.71
> NC(Cc1c[nH]c2ccccc12)C(=O)NCc1ccccc1 (configuration not stated)
 : i | 0.42
> C#Cc1ccc([C@H]2C=C(C(=O)NCc3nc4ccccc4[nH]3)O[C@@H](OCc3ccc(CO)cc3)C2)cc1
 : i | -0.33
> CCO[C@H]1OC(C(=O)O)=C[C@@H](C2CCCCC2)[C@@H]1CCCO
 : i | 0.04
> C/C(=N\N=C(/N)SC1CC(=O)N(c2ccc(Br)cc2)C1=O)c1cccs1 (configuration not stated)
 : i | 0.81
> O=C(NNc1ccc([N+](=O)[O-])cc1)c1ccccc1Cl
 : i | 3.97
> Cc1cc(-c2cccs2)c2c(N)c(C(=O)c3ccc4c(c3)OCO4)sc2n1
 : i | 11.1
> CCOc1ccccc1C(=O)NC1CCN(CC(=O)Nc2cc(OC)ccc2OC)CC1
 : i | 0.05
> S=C1NC2(CCCCC2)NN1c1ccccc1
 : i | -2.31
> C[C@@H]1C=C[C@](Cc2ccccc2)(C(=O)NCC2CC2)N1C(=O)c1ccccc1
 : i | 1.8
> COc1ccc(NC(=S)N2CCC(c3ccc(C)cc3)C2)cc1 (configuration not stated)
 : i | -0.01
> Cc1cccc(C)c1N1CCN(C(=O)c2ccc3c(c2)OCO3)CC1
 : i | -0.73
> COc1ccc(CCNC(=O)C(=O)NCC2CCCN2S(=O)(=O)c2ccccc2)cc1 (configuration not stated)
 : i | 0.74
> O=C(c1ccccc1N(Cc1ccccc1)S(=O)(=O)c1ccccc1)N1CCOCC1
 : i | -1.02
> O=C(CSc1nnc(-c2ccc(Cl)cc2)n1Cc1ccco1)NCc1ccc2c(c1)OCO2
 : -5.89* | -0.05*
> CC1CCCN(C(=O)CN2CCN(C(=O)c3ccco3)CC2)C1 (configuration not stated)
 : i | 2.53
> O=C(CSc1nnc(-c2ccc(F)cc2)n1CC1CCCO1)NCc1ccco1 (configuration not stated)
 : i | 0.47
> COc1cccc(NC(=O)CN(C)C(=O)COc2ccc3ccccc3c2)c1
 : i | -2.25
> CCN1CCN(c2nc3ccccn3c(=O)c2/C=C(\C#N)S(=O)(=O)c2ccccc2)CC1
 : i | 0.44
> Cc1cc([N+](=O)[O-])nn1CC(=O)Nc1ccc(Cc2ccncc2)cc1
 : i | 0.02
> COc1ccc(-n2ccnc2SCC(=O)NC2CCCC2)c(OC)c1
 : i | 2.66
> Cc1sc2nc(CSc3ccccc3)nc(NCCN(C)C)c2c1C
 : i | -1.47
> Cc1cccnc1NC(=O)c1ccc(S(=O)(=O)NCc2ccco2)cc1
 : i | 1.81
> COc1ccccc1N1CCN(C(=O)C(=O)N/N=C/c2cccc(O)c2)CC1
 : i | -0.35
> CCn1ncc(CN2CCC(Oc3cc(C(=O)NC4CC4)ccc3OC)CC2)c1C
 : i | -1.91
> CCOc1ccccc1Nc1cc(C)c2cccc(C)c2n1
 : -5.76* | 2.61*
> O=C(COC(=O)c1cccc(Cl)c1Cl)NC1CCCC1
 : i | 1.89

Following part.
Values in the order – KCNQ2 block | KCNQ2 block baseline
> CC(CCc1ccccc1)NC(=O)c1nnc(Cc2ccc(F)cc2)o1 (configuration not stated)
 : i | 0.94
> CCOc1ccccc1C1NC(=O)CCC1[N+](=O)[O-] (configuration not stated)
 : i | 0.51
> CC(C)CC(=O)Nc1ccnn1C1CCN(C(=O)c2ccc(F)cc2Cl)CC1
 : i | -0.57
> CC(CCc1ccccc1)NC(=O)Cc1ccc([N+](=O)[O-])cc1 (configuration not stated)
 : i | -0.44
> COc1ccccc1C1C([N+](=O)[O-])=CC([N+](=O)[O-])=CN1C (configuration not stated)
 : i | 1.77
> Cc1n[nH]c(C)c1CN(C)C(=O)C1CCC(=O)N(CCc2cccc(F)c2)C1 (configuration not stated)
 : i | -0.67
> CCOc1ccc(NC(=O)CCC(=O)Nc2cc(OC)c(NC(=O)c3ccco3)cc2OC)cc1
 : i | -0.1
> CCOC(=O)c1cnn(-c2ccc(C(F)(F)F)cn2)c1N
 : i | 1.12
> COCC(CN1CCN(C2=NS(=O)(=O)c3ccccc32)CC1)OC(=O)c1ccccc1 (configuration not stated)
 : i | 0.32
> O=C(CSc1nccn1Cc1ccco1)Nc1ccccc1C(F)(F)F
 : i | -0.49
> Cc1ccc(Cl)cc1N=C(N)N=C(N)N
 : i | 1.06
> Cn1nnnc1SCc1nnc(-c2ccc(F)cc2)o1
 : i | 0.03
> O=C(Nc1cc(C(F)(F)F)ccc1N1CCOCC1)C1=COCCO1
 : i | 0.24
> O=C1C2CSCN2C(=O)CN1CCCN1CCN(C(c2ccccc2)c2ccccc2)CC1 (configuration not stated)
 : i | 0.18
> COCCn1c(C(F)(F)F)ccc(NC(=O)c2ccccc2)c1=O
 : i | -0.5
> CC(C(=O)N1CCOCC1)c1ccc([N+](=O)[O-])cc1 (configuration not stated)
 : i | 0.95
> COc1ccc(CCC(=O)Nc2cc(S(C)(=O)=O)ccc2Cl)cc1
 : i | -1.58
> CN(C)/C=C/C(=O)c1c(F)cccc1F
 : i | 0.15
> Clc1cccc(CNCC2CCCO2)c1Cl (configuration not stated)
 : i | 1.08
> CCOC(=O)CN1C(=O)/C(=C2\SC(=S)N(NC(=O)c3cccnc3)C2=O)c2ccccc21
 : i | 0.73
> CC1CCN(S(=O)(=O)c2ccc(C(=O)Nc3sccc3C(N)=O)cc2)CC1
 : i | 2.58
> Clc1ccc(OCCCc2nc(-c3cccnc3)no2)c(Cl)c1
 : i | 0.94
> CCN(c1ccc(OC)cc1)S(=O)(=O)c1nnc(NC(=O)c2ccccc2Cl)s1
 : i | 0.02
> c1ccc(-c2cnnc(N3CCCCC3)n2)cc1
 : i | -0.46
> CC[n+]1ccc(/C=C2\Sc3ccccc3N2CCCS(=O)(=O)[O-])c2ccccc21
 : i | -0.48
> CC(OC(=O)C1CCCCC1)c1nc2ccccc2[nH]1 (configuration not stated)
 : i | -0.6

4 entries from above, ordered by length of the SMILES, lowest first.
Values in the order – KCNQ2 block | KCNQ2 block baseline
> Cc1ccccc1CC1SC(N)=NC1=O (configuration not stated)
 : i | 0.02
> CN(C)/C=C/C(=O)c1c(F)cccc1F
 : i | 0.15
> COc1ccc(CCC(=O)Nc2cc(S(C)(=O)=O)ccc2Cl)cc1
 : i | -1.58
> Cc1cc(-c2cccs2)c2c(N)c(C(=O)c3ccc4c(c3)OCO4)sc2n1
 : i | 11.1

Source: PubChem BioAssay
